NS1 function inh – qHTS Assay for Inhibitors of Influenza NS1 Protein Function. Potency, µM (doses to about 46.1 µM), for inactives: top-dose activity, positive = more growth. S. cerevisiae slowed by influenza A NS1, growth recovery by OD600. actives 0.4% (n = 270,000); also: actives are rising curves; nearly all actives have a fitted effect of over 50% in size
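Read-out: OD600 growth recovery of NS1-expressing budding yeast. Cells grown overnight at 30C in -URA glucose medium, washed, resuspended and diluted 1:100 in 2% galactose assay medium, pH 6.0. Same strain lacking NS1 served as positive control.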
SARS PLP yeast – qHTS of Yeast-based Assay for SARS-CoV PLP; S. cerevisiae expressing SARS-CoV PLpro, growth rescue; control for the full effect not named in the record; Potency, µM (highest dose often 32.9 µM), inactives show at the highest dose activity, positive = growth rescue; actives 0.19% (n = 330,000); also: 0% is about no effect; nearly all actives have a fitted effect of over 55% in size; growth read by luminescence after 48 h
Cruzain noTriton – qHTS Assay for Promiscuous and Specific Inhibitors of Cruzain (without detergent) | actives 2.3% (n = 200,000) | Cruzipain (Trypanosoma cruzi), P25779 | purified cruzain, Z-FR-AMC fluorescence, no detergent | AID 1476, 2009 | Potency, µM, for the others: max response, negative = inhibition, hits mostly inhibitors; active = well fitted curve in the direction sought with a large enough effect; inconclusive = small, poorly fitted or top-dose-only effect, or another doubt; inactive = no such curve, though single readings can be large; an effect the other way counts as inactive or inconclusive;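 also: plate controls were enzyme without inhibitor for no effect and buffer without enzyme for full effect; nearly all actives have a fitted effect of over 40% in size; top concentration of the series not given in the record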
Target sequence (P25779 123-467 limits assumed): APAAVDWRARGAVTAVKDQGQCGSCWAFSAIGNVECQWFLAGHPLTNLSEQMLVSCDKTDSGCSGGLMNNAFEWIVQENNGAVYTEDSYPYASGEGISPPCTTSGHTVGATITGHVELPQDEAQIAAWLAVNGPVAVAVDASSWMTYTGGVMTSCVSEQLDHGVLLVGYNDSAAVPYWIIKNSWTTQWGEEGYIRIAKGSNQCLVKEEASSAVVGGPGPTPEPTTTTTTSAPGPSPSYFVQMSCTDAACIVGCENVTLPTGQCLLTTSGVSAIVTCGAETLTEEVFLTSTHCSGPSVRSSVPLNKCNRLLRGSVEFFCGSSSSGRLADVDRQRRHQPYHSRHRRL
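Purified cruzain at 1.5 nM, pre-incubated 15 min with compound at room temperature in 100 mM sodium acetate pH 5.5, 5 mM DTT, 0.00005% Triton X-100. Reaction started with 2 uM Z-FR-AMC; AMC fluorescence increase over 60 s gives rate.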
LASV entry inh – qHTS for Inhibitors of binding or entry into cells for Lassa Virus; Lassa virus pseudotype entry inhibition, cell reporter; control for the full effect not named in the record; Potency, µM (doses to about 37.9 µM), without a hit: top-dose activity change, negative = inhibition, actives largely listed as inhibitors; actives 1.2% (n = 300,000); active means well fitted inhibition curve with a large enough effect; inconclusive means small, poorly fitted or top-dose-only effect, or effect the other way; inactive means flat fitted curve, though single readings scatter; tested in HEK293 cells; also: % is scaled to controls: 0 for no effect and ±100 for the full control effect; nearly all actives have a fitted effect of over 50% in size; luciferase read-out
RE007 growth inh – qHTS Assay for Inhibitors of the HIV-1 protein Vpr | Potency, µM (series often up to 92.2 µM), without a hit: top-dose activity change, negative = less growth | actives 0.21% (n = 360,000) | S. pombe RE007 Vpr strain, BacTiter-Glo ATP luminescence, 24 h; control for the full effect not named in the record; active = well fitted falling curve with a large enough effect; inconclusive = small, poorly fitted or top-dose-only effect; inactive = no such curve, though single readings can be large or run the other way;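 also: % is scaled to controls: 0 for no effect and ±100 for the full control effect; nearly all actives have a fitted effect of over 50% in size; the assay follows cell death caused by Vpr and the record does not say whether a fall means rescue or toxicity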
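Fission yeast RE007 carrying one integrated HIV-1 vpr copy, seeded at OD 0.01 in PMG+AL medium with 23 nL pinned compound. Grown 24 h at 30 degrees; viability read by BacTiter-Glo luminescence after 5 min.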
MARV entry inh – qHTS for inhibitors of binding or entry into cells for Marburg Virus; Marburg virus pseudotyped entry inhibition, cell reporter; control for the full effect not named in the record; about a third of the inactives were read at about 46 µM; Potency, µM (highest dose often 37.8 µM), without a hit: top-dose activity change, negative = inhibition, actives largely listed as inhibitors; actives 1.8% (n = 300,000); AID 540276, 2011; active = well fitted inhibition curve with a large enough effect; inconclusive = small, poorly fitted or top-dose-only effect, or effect the other way; inactive = flat fitted curve, though single readings scatter; tested in HEK293 cells; about a fifth of its hits are not listed in these tables; also: % is scaled to controls: 0 for no effect and ±100 for the full control effect; luciferase read-out
StopGo reporter – High Throughput Screening for Foot and Mouth Disease Virus Antivirals | AID 1159524, 2015 | actives 1.2% (n = 410,000) | Potency, µM (series often up to 57.9 µM), for the others: at the highest dose signal change, negative = less light | human cells with a luciferase reporter of 2A StopGo recoding; control for the full effect not named in the record; active = well fitted falling curve with a large enough effect; inconclusive = small, poorly fitted or top-dose-only effect; inactive = no such curve, though single readings can be large or run the other way; tested in HEK293T cells; also: % is scaled to controls: 0 for no effect and ±100 for the full control effect; nearly all actives have a fitted effect of over 45% in size; luciferase light after 4 h
Cruzain Triton – qHTS Assay for Promiscuous and Specific Inhibitors of Cruzain (with detergent); Cruzipain (Trypanosoma cruzi), P25779; purified cruzain, Z-FR-AMC fluorescence, 0.01% Triton; Potency, µM, for inactives: max response, negative = inhibition, usual class: inhibitors; actives 0.43% (n = 200,000); active = well fitted curve in the direction sought with a large enough effect; inconclusive = small, poorly fitted or top-dose-only effect, or another doubt; inactive = no such curve, though single readings can be large; an effect the other way counts as inactive or inconclusive;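 also: plate controls were neutral wells for no effect and buffer without enzyme for full effect; nearly all actives have a fitted effect of over 40% in size; top concentration of the series not given in the record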
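Z-FR-AMC hydrolysis (2 uM substrate) by cruzain (1.5 nM) monitored kinetically at ex 360/em 450 nm after 15 min room-temperature compound exposure; 0.01% Triton X-100, pH 5.5, 5 mM DTT.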
An asterisk follows results filed as active; ? = inconclusive; nt = not tested or not shown; [ ] = remark or other dose. Unless noted, calls follow the shape of the dose curve; as a rule, active means well fitted rising curve with a large enough effect; inconclusive means small, poorly fitted or top-dose-only effect; inactive means no such curve, though single readings can be large or run the other way. Potency is read from the fitted curve at half-maximal effect.

The line under a structure holds: NS1 function inh | SARS PLP yeast | Cruzain noTriton | LASV entry inh | RE007 growth inh | MARV entry inh | StopGo reporter | Cruzain Triton
CC(=O)Nc1ccc(Nc2nc(Cl)nc(Nc3ccc(NC(C)=O)cc3)n2)cc1
  0.7% | 0.3% | nt | -15.7% | -14.1% | ? | 0.5% | nt
COc1ccc(-c2noc(CN(C)C(=O)Nc3ccccc3)n2)cc1
  -0.9% | 3.2% | nt | nt | -0.8% | nt | -27.5% | nt
FC(F)c1nnc2c(Cl)cc(C(F)(F)F)cn12
  -0.5% | 0.1% | nt | 3.4% | -14.4% | ? | -4.3% | nt
O=C(O)/C=C/C(=O)Nc1ccccc1SC(F)(F)F
  8.5% | -83.3% | 10.7% | 3.5% | -21.7% | -0.4% | -16.5% | -0.6%
O=c1[nH]c(=S)[nH]c(O)c1N=Nc1ccc2c(c1)OCCO2
  4.2% | 0.8% | nt | ? | -4.9% | 11.2µM* | -57.2% | nt
COC(=O)c1ccc(COC(=O)CNC(=O)c2ccco2)cc1
  -82.8% | 3.3% | -5.3% | 12.8% | -5.7% | 8.6%[46.1 µM] | 1.6% | 6.2%
CCc1ccccc1NC(=O)CCS(=O)(=O)c1cccc2nonc12
  nt | nt | -1.0% | 4.4%[46.1 µM] | nt | ? | -6.5% | -1.6%
Cc1ccc(-n2ncc(C(=O)N3CCN(c4cc(Cl)ccc4C)CC3)c2C2CCN(C(=O)OC(C)(C)C)CC2)cc1
  nt | nt | 1.0% | ? | nt | nt | -4.0% | -1.0%
Cn1c(=O)oc2cc(S(=O)(=O)NCCC(=O)N3CCc4ccccc4C3)ccc21
  -0.8% | 9.5% | -0.7% | 1.8% | 3.0% | 28.7% | -20.8% | -0.5%
Cc1ccc(C(=O)Nc2ccc(C)c(S(=O)(=O)N(C)C)c2)s1
  -11.6% | -3.0% | 0.9% | ? | -7.4% | ? | 0.0% | -2.5%
O=C(c1ccc(Oc2ccc(C(F)(F)F)cn2)cc1)N1CCN(c2ccccc2)CC1
  -56.8% | -9.0% | 24.2% | 23.9% | 7.2% | ? | ? | -7.3%
CCOC(=O)c1c(C)n2c3c(cc(C)cc13)CCC2
  nt | -0.3% | nt | -1.9% | -8.6% | ? | 3.5% | nt
CC(=O)NN1C(=O)c2ccccc2NC1c1ccccc1 (stereo not drawn)
  0.8% | 1.3% | nt | 8.7%[46.1 µM] | 13.1% | 5.6%[46.1 µM] | -19.5% | nt
COCC(C)NCc1cccc(OC)c1OC (stereo not drawn)
  -21.9% | 22.3% | -3.7% | 3.5% | 5.3% | 1.3% | -18.4% | 0.5%
CN(CCc1ccccn1)C1CCCN(S(=O)(=O)c2ccccc2)C1 (stereo not drawn)
  -12.0% | 0.9% | nt | 24.4% | 1.7% | 26.0% | 2.1% | nt
Cc1ccc(NC(=O)Nc2ccon2)cc1Cl
  -35.1% | -10.8% | nt | nt | 7.6% | nt | 32.5%[activator] | nt
COc1ccccc1Nc1nc(N)nc(CN2CC(C)CC(C)C2)n1 (stereo not drawn)
  nt | -1.9% | nt | 16.3% | 2.6% | -0.4% | -6.9% | nt
CCC(=O)C(CCN1CCOCC1)(c1ccccc1)c1ccccc1
  nt | nt | nt | -5.8%[46.1 µM] | -7.2% | ? | 1.9% | nt
COc1ccc(NC(=O)c2cc3c(=O)n(Cc4cccnc4)ccc3nc2C)c(OC)c1
  nt | nt | 2.2% | 22.1%[46.1 µM] | nt | nt | -17.9% | -2.3%
O=C(NCCC1=CCCCC1)c1ccc([N+](=O)[O-])cc1
  -12.6% | -19.1% | -1.2% | ? | 12.4% | ? | 3.5% | 2.1%
CC(C)CC(=O)N1CCN(Cc2ccccc2Br)CC1
  -7.7% | -1.1% | nt | nt | 0.2% | nt | -7.5% | nt
CCNC(=S)N/N=C/c1ccc(-c2ccccc2)o1
  4.1% | -5.6% | -16.1% | -9.8% | -5.9% | 4.2% | 18.3% | -17.2%
CCc1nnc(NC(=O)c2ccc(COc3ccccc3C)o2)s1
  3.9% | -3.5% | nt | 22.0% | -13.4% | 22.4%[46.1 µM] | -9.6% | nt
O=C(Nc1ccccc1C(=O)O)c1ccc(Br)o1
  -4.6% | -5.9% | 2.6% | 24.7% | -5.8% | 22.2% | nt | -3.5%
Cc1ccc(N(Cc2cccs2)C(=O)COc2ccccc2[N+](=O)[O-])cc1
  nt | nt | -9.4% | ? | nt | ? | 26.3% | -6.9%
COc1ccc(CNC(=O)COC(=O)[C@H](Cc2c[nH]c3ccccc23)NC(=O)c2cccs2)cc1
  -1.4% | 5.2% | -0.9% | -14.9% | -1.4% | -7.8% | -14.0% | -26.0%
COc1ccc(-c2ccc(-c3noc(-c4ccccc4OC)n3)c(OC)n2)cc1
  6.1% | -2.1% | -9.6% | -22.0% | -14.5% | -5.2% | -13.6% | -1.9%
COc1cc(C2SCC(=O)N2CCN2CCCCC2)ccc1O (stereo not drawn)
  4.8% | 0.0% | nt | -9.7%[46.1 µM] | 3.0% | -6.2%[46.1 µM] | 5.9% | nt
Cc1nc(-c2ccc(S(=O)(=O)Nc3cc(S(=O)(=O)N(C)C)ccc3C)s2)cs1
  -3.9% | 0.9% | nt | nt | 2.4% | nt | 7.8% | nt
CCOc1ccc(NC(=O)CSc2nc3nc4c(cc3c(=O)n2CC)COC(C)(C)C4)cc1
  8.0% | 1.4% | nt | -16.0%[46.1 µM] | -8.7% | -5.6%[46.1 µM] | -15.0% | nt
O=C(N1CCN(c2cccc(Cl)c2)CC1)C1(S(=O)(=O)c2ccc(Cl)cc2)CC1
  -76.9% | -19.5% | 12.7% | 5.2% | 11.1% | -22.0% | -13.5% | -7.3%
CCCn1nc(C(=O)NNC(=O)CSCC(=O)Nc2cc(C)on2)c2ccccc2c1=O
  nt | 2.8% | nt | 19.5% | -1.1% | ? | 4.7% | nt
CCCCc1nc2cc(C(=O)NC3CCOC(C)(C)C3)ccc2o1 (stereo not drawn)
  -9.3% | 4.5% | nt | nt | 5.3% | nt | -7.3% | nt
COc1ccc(OC)c(NC(=O)Cn2c(=O)n(-c3ccc(Cl)cc3)c(=O)c3c(C)c(C)sc32)c1
  nt | nt | -2.0% | 11.4%[46.1 µM] | nt | -2.2%[46.1 µM] | -19.1% | 0.3%
COc1ccc(CCNC(=O)C2CCCN(S(=O)(=O)N3CC(C)CC(C)C3)C2)cc1OC (stereo not drawn)
  -10.9% | -8.0% | nt | nt | 12.1% | nt | -13.9% | nt
Cn1nnc2cc(C(=O)Nc3ccc4ccccc4c3)ccc21
  0.3% | -0.2% | nt | 13.3% | 15.8% | -15.4%[46.1 µM] | 73.3%[activator] | nt
CC(NC(=O)/C(C#N)=C/c1ccc(Cl)c([N+](=O)[O-])c1)c1ccccc1 (stereo not drawn)
  -62.4% | -99.1% | -4.1% | ? | 3.9% | ? | 31.6µM* | -9.2%
O=C(Nc1ccsc1C(=O)NC1CC1)c1ccccc1
  -16.3% | -13.7% | -1.2% | -9.4% | -9.2% | -3.2% | ? | -2.0%
O=C(COC(=O)/C=C/c1ccccc1[N+](=O)[O-])NCC1CCCO1 (stereo not drawn)
  2.0% | 1.8% | nt | 2.3% | -21.3% | 0.9%[46.1 µM] | -2.0% | nt
O=C(NCC(O)c1ccc([N+](=O)[O-])cc1)C1=COCCO1 (stereo not drawn)
  nt | 0.9% | nt | 2.0% | 1.2% | 0.1% | 0.0% | nt
CCCCC(=O)Nc1c(C(=O)N2CCN(c3ccccc3F)CC2)oc2ccccc12
  nt | nt | ? | ? | nt | ? | 44.8%[activator] | -7.8%
Cc1cccc(NC(=O)CNC(=O)CNC(=O)Cc2ccccc2)c1
  8.9% | 7.4% | nt | -21.2% | 87.3% | ? | -13.4% | nt
C/C(=N\NC(=O)C(=O)N/N=C(\C)c1cccc(O)c1)c1cccc(O)c1
  2.5% | -0.8% | nt | 13.3% | 19.0% | 10.2%[14.2 µM] | 24.8% | nt
COc1cccc(N=Nc2ccc3cccnc3c2O)c1
  -94.2% | -8.5% | nt | nt | ? | nt | 35.0%[activator] | nt
CCOc1ccc(S(=O)(=O)N2CCN(CCNS(=O)(=O)c3ccc(C)cc3)CC2)cc1
  nt | -13.1% | nt | -24.1% | -10.3% | -28.2%[46.1 µM] | -9.4% | nt
Cc1ccc2nc3c(cc2c1)c(NC(=O)c1ccccn1)nn3CC(C)C
  2.8% | 15.6% | 21.1% | 5.8% | 3.5%[3.69 µM] | -23.4% | 0.2% | -6.1%
O=C(CN(c1ccc(F)cc1)S(=O)(=O)c1ccc2c(c1)OCCO2)NCc1ccccc1
  -1.3% | -0.7% | 6.7% | ? | 9.0% | -2.3% | nt | 0.2%
CCNC(=O)OCc1cn(-c2ccc(Cl)cc2)nn1
  nt | -0.1% | nt | 11.5% | 29.3% | 6.1%[46.1 µM] | 10.3% | nt
CN1C(C(=O)NCCc2cccs2)CC2Cn3c(nc4ccccc43)C21 (stereo not drawn)
  0.0% | 7.2% | nt | nt | -15.0% | nt | -7.0% | nt
CCc1nnc(SCC(=O)Nc2ccc(N3CCN(S(C)(=O)=O)CC3)cc2)o1
  6.1% | 0.4% | nt | -0.7%[46.1 µM] | 1.1% | 4.7%[46.1 µM] | -7.1% | nt
COc1ccc2c(c1)C(O)C(CO)C(C(=O)O)C2 (stereo not drawn)
  nt | nt | nt | 18.5% | -21.7% | 26.0% | -21.8% | nt
Cc1ccc(C)c(NC(=O)/C(C#N)=C/c2cn(CC(=O)NCc3ccco3)c3ccccc23)c1
  5.7% | 1.8% | 7.94µM* | -17.1% | -10.1% | ? | -7.7% | 10.6%

Assay outcomes: PubChem, National Center for Advancing Translational Sciences (NCATS)
